SARS PLP yeast: SARS-CoV PLP inhibition in yeast; 330,000 compounds, 0.19% hits; AID 485353; Potency, µM (series often up to 32.9 µM), inactives show top-dose activity, positive = growth rescue; S. cerevisiae expressing SARS-CoV PLpro, growth rescue; control for the full effect not named in the record; active means well fitted rising curve with a large enough effect; inconclusive means small, poorly fitted or top-dose-only effect; inactive means no such curve, though single readings can be large or run the other way; also: 0% is about no effect; nearly all actives have a fitted effect of over 55% in size; growth read by luminescence after 48 h
Cruzain inh noDet: cruzain (T. cruzi) inhibition without detergent | P25779 | purified cruzain, Z-FR-AMC fluorescence, no detergent | Potency, µM, inactives show max response, negative = inhibition, most hits filed as inhibitors | 200,000 compounds, 2.3% hits;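 also: plate controls were enzyme without inhibitor for no effect and buffer without enzyme for full effect; nearly all actives have a fitted effect of over 40% in size; top concentration of the series not given in the record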
Target sequence (P25779 123-467 limits assumed): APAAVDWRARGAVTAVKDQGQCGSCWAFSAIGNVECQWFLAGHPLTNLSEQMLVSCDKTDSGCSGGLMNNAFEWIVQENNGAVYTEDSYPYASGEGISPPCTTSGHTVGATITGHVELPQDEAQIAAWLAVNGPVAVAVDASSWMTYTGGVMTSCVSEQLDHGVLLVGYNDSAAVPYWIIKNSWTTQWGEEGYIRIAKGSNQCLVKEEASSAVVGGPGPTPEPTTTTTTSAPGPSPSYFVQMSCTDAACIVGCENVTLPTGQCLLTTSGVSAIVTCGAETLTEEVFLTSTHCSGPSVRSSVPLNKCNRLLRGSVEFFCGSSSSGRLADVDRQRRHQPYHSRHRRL
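Detergent-free condition (0.00005% Triton X-100) in acetate buffer pH 5.5 with DTT. 1.5 nM enzyme and compound were pre-mixed 15 min, then 2 uM Z-FR-AMC substrate added; reaction progress from fluorescence change between first and third reads (60 s).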
Lassa entry inh: Lassa virus entry inhibition. Lassa virus pseudotype entry inhibition, cell reporter; control for the full effect not named in the record. 300,000 compounds, 1.2% hits. Potency, µM (highest dose often 37.9 µM), without a hit: at the highest dose activity change, negative = inhibition, most hits filed as inhibitors; active means well fitted inhibition curve with a large enough effect; inconclusive means small, poorly fitted or top-dose-only effect, or effect the other way; inactive means flat fitted curve, though single readings scatter; tested in HEK293 cells; also: % is scaled to controls: 0 for no effect and ±100 for the full control effect; nearly all actives have a fitted effect of over 50% in size; luciferase read-out
2A StopGo: lowers the luciferase signal of an FMDV 2A StopGo reporter; human cells with a luciferase reporter of 2A StopGo recoding; control for the full effect not named in the record; Potency, µM (titrated, usually from 57.9 µM), for the others: at the highest dose signal change, negative = less light; 410,000 compounds, 1.2% hits; active = well fitted falling curve with a large enough effect; inconclusive = small, poorly fitted or top-dose-only effect; inactive = no such curve, though single readings can be large or run the other way; tested in HEK293T cells; also: % is scaled to controls: 0 for no effect and ±100 for the full control effect; nearly all actives have a fitted effect of over 45% in size; luciferase light after 4 h
Marburg entry inh: blocks Marburg virus binding to or entry into cells | Marburg virus pseudotyped entry inhibition, cell reporter; control for the full effect not named in the record; about a third of the inactives were read at about 46 µM | Potency, µM (highest dose often 37.8 µM), for the others: at the highest dose activity change, negative = inhibition, hits mostly inhibitors | 300,000 compounds, 1.8% hits | AID 540276; active = well fitted inhibition curve with a large enough effect; inconclusive = small, poorly fitted or top-dose-only effect, or effect the other way; inactive = flat fitted curve, though single readings scatter; tested in HEK293 cells; about a fifth of its hits are not listed in these tables; also: % is scaled to controls: 0 for no effect and ±100 for the full control effect; luciferase read-out
RE007 growth inh: less growth of the S. pombe RE007 Vpr strain. Potency, µM (top dose mostly 92.2 µM), without a hit: at the highest dose activity change, negative = less growth. AID 651644. S. pombe RE007 Vpr strain, BacTiter-Glo ATP luminescence, 24 h; control for the full effect not named in the record. 360,000 compounds, 0.21% hits; active = well fitted falling curve with a large enough effect; inconclusive = small, poorly fitted or top-dose-only effect; inactive = no such curve, though single readings can be large or run the other way;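 also: % is scaled to controls: 0 for no effect and ±100 for the full control effect; nearly all actives have a fitted effect of over 50% in size; the assay follows cell death caused by Vpr and the record does not say whether a fall means rescue or toxicity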
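Fission yeast RE007 carrying one integrated HIV-1 vpr copy, seeded at OD 0.01 in PMG+AL medium with 23 nL pinned compound. Grown 24 h at 30 degrees; viability read by BacTiter-Glo luminescence after 5 min.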
Cruzain Triton: cruzain (T. cruzi) inhibition with detergent; P25779; purified cruzain, Z-FR-AMC fluorescence, 0.01% Triton; Potency, µM, for the others: max response, negative = inhibition, actives largely listed as inhibitors; 200,000 compounds, 0.43% hits; AID 1478;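 also: plate controls were neutral wells for no effect and buffer without enzyme for full effect; nearly all actives have a fitted effect of over 40% in size; top concentration of the series not given in the record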
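In this qHTS format, compounds are incubated with 1.5 nM cruzain for 15 min at room temperature before 2 uM Z-FR-AMC is added. Release of AMC is followed at 360/450 nm, and progress is taken as the 60 s fluorescence difference.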
NS1 inh: influenza NS1 inhibition | S. cerevisiae slowed by influenza A NS1, growth recovery by OD600 | Potency, µM (series often up to 46.1 µM), for the others: at the highest dose activity, positive = more growth | 270,000 compounds, 0.4% hits; active means well fitted rising curve with a large enough effect; inconclusive means small, poorly fitted or top-dose-only effect; inactive means no such curve, though single readings can be large or run the other way; also: nearly all actives have a fitted effect of over 50% in size
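S. cerevisiae expressing influenza A NS1, grown in glucose, washed, then diluted 1:100 into pH 6.0 -URA galactose medium with 23 nl compound. Growth recovery read as OD600; NS1-free strain serves as control.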
* marks the source's active call; other numbers are inactive results; u = inconclusive; x = not tested or not shown; & = joins results of further samples; [ ] = remark or other dose. Unless noted, calls follow the shape of the dose curve; as a rule, active = well fitted curve in the direction sought with a large enough effect; inconclusive = small, poorly fitted or top-dose-only effect, or another doubt; inactive = no such curve, though single readings can be large; an effect the other way counts as inactive or inconclusive. Potency is read from the fitted curve at half-maximal effect.

canonical_smiles	Lassa entry inh	RE007 growth inh	2A StopGo	Marburg entry inh	NS1 inh	SARS PLP yeast	Cruzain inh noDet	Cruzain Triton
CN(C)c1ccc(C2N(c3ccc(F)cc3)C(=O)C3CCCN32)cc1 (stereo not given)	x	9%	-13%	x	-66%	-7%	-18%	-5.7%
Cc1cccc(N2CCN(Cc3cc(=O)oc4cc(C)ccc34)CC2C)c1 (stereo not given)	10%[46.1 µM]	x	-23%	10%[46.1 µM]	x	x	-6%	-0.5%
Cc1cc(C)c2nc(SCC(=O)N(C)C3CCS(=O)(=O)C3)cc(C)c2c1 (stereo not given)	-5%	4%	-22%	-24%	5%	3%	x	x
Cc1cc(C)cc(NC(=O)CSc2ccc(-c3cccs3)nn2)c1	u	13%	u	7.1µM*	-31%	-22%	-4%&2%	-5.3%&-8.1%
COC(=O)c1[nH]c2ccccc2c1NC(=O)CNC1CCCCC1	0%	-6%	-21%	u	-2%	-1%	7%	-0.4%
CCN(CC)CCCN1C(=O)CSC1c1ccc([N+](=O)[O-])cc1 (stereo not given)	x	-4%	-3%	x	4%	0%	x	x
Cc1ccc(C(C(=O)NC2CCCCC2)N2CCN(C(=O)c3ccco3)CC2)cc1 (stereo not given)	-15%	-3%	11%	-18%	-20%	2%	1%	-0.3%
Cc1cccc(NS(=O)(=O)c2cc3c4c(c2)CCC(=O)N4CCC3)c1	u	-2%	28%	u	x	17%	x	x
Fc1ccc2c(c1)NC(c1ccncc1)=NC(c1cccs1)=N2	3%[46.1 µM]	x	-24%	1%[46.1 µM]	x	x	9%	-1.0%
CC(Sc1nnc(N)s1)C(=O)c1c(N)n(C)c(=O)n(C)c1=O (stereo not given)	3%	3%	-16%	-6%[46.1 µM]	x	-5%	x	x
OCCNc1nc2ccccc2n1CC(O)c1ccccc1 (stereo not given)	-7%	0%	-2%	0%[46.1 µM]	x	1%	x	x
Cc1ccccc1NC(=O)NC1(C(=O)NCC2CCCO2)CCCCC1 (stereo not given)	9%	1%	-1%	0%[46.1 µM]	0%	-6%	x	x
O=S(=O)(Nc1nc(SCc2ccc(Cl)cc2)n[nH]1)c1ccc(F)cc1	-3%	14%	u	-32%	-7%	1%	x	x
Cc1ccc(C(=O)NNC(=O)c2ccncc2)cc1C	x	4%	7%	x	11%	2%	x	x
CC(C)CCN1CCN(C/C=C/c2ccco2)CC1CCO (stereo not given)	1%[46.1 µM]	-12%	-15%	-5%[46.1 µM]	-1%	0%	x	x
O=C(Nc1cccc2ccccc12)NC1CCS(=O)(=O)C1 (stereo not given)	-2%	-11%	1%	9%	1%	0%	x	x
O=C1Nc2ccc(Br)cc2C12OCCO2	-6%	30%	-18%	-2%[46.1 µM]	x	x	x	x
Cc1ccc(C(=O)N2CCC(n3nccc3NC(=O)Nc3cccc(F)c3)CC2)cn1	x	-3%	17%	x	4%	1%	x	x
CC(C)N(Cc1ccccc1)C(=O)C1CCN(c2ncnc3c2nc2n3CCCCC2)CC1	x	-8%	0%	x	-6%	1%	x	x
COCCn1cc(C(=O)NCCCOC(C)C)c2c3ccccc3n(C)c2c1=O	-1%&-30%[46.1 µM]	1%	u	-17%&-4%[46.1 µM]	1%	3%	-1%	-9.0%
COC(=O)/C=C1\C(=O)N(c2nc3ccccc3s2)C(=S)N1c1ccc(F)cc1	u	10%	36%[activator]	3%	0%	-1%	29%	0.7%
Cc1ccc(C)c(CS(=O)(=O)c2cn(CC(=O)N3CCCCC3)c3ccccc23)c1	1%	1%	0%	2%	-4%	8%	14%	-5.5%
Cc1cc(C)cc(NC(=O)Cn2nnc(C(=O)NCc3ccc4c(c3)OCO4)c2N)c1	-26%[46.1 µM]	-5%	-6%	u	-7%	0%	x	x
COc1ccc(CCCNC(=O)C2CCC(=O)N(CC3CCCCC3)C2)cc1 (stereo not given)	-7%	4%	-8%	4%	-2%	2%	x	x
C=CCN1C(=O)C2C(C(=O)NC3CCCCC3)C3C=CC2(O3)C1C(=O)NC1CCCC1 (stereo not given)	14%	7%	7%	7%	3%	-3%	-12%	2.6%
CCN(CC)C(=O)Cn1c(=O)n(CCCCCC(=O)NCc2ccccc2)c(=O)c2sccc21	-25%[46.1 µM]	x	-18%	2%[46.1 µM]	x	x	-6%	0.3%
CCCC(=O)Nc1nnc(SCC(=O)NCc2ccco2)s1	11%	-12%	-2%	5%	-2%	15%	-8%	-2.0%
COc1ccc(NC(=O)CO/N=C(\C)c2cccs2)cc1	4%[46.1 µM]	4%	6%	-2%[46.1 µM]	x	-2%	x	x
C#CCOc1ccc(/C=C2/C(=O)ON=C2C)cc1Br	14%[46.1 µM]	-9%	-38%	17%[46.1 µM]	7%	-1%	x	x
CCC(/C=N/NC(=O)C(N)=O)CC	-6%	7%	-2%	2%	2%	3%	2%	-3.3%
Cc1ccc2cc(C(c3nnnn3C(C)(C)C)N3CCCCCC3)c(=O)[nH]c2c1 (stereo not given)	-6%	-16%	6%	5%&-6%	11%	4%	-4%	-2.3%
CC(C)OCCCNC(=O)CCc1nc(-c2ccccc2)no1	6%	-9%	5%	18%	-4%	-4%	0%	0.9%
O=c1[nH]c(N/N=C/c2ccc(O)cc2)nc2ccccc12	u	14%	25%	u	7%	-7%	u	-7.9%
Cc1cc(C)nc(SCc2nnc(SCC(=O)Nc3nccs3)n2C)n1	0%	12%	-17%	u	14%	19%	-8%	2.2%
CCC1S/C(=N/S(=O)(=O)c2ccc(N)cc2)NC1=O (stereo not given)	1%	0%	13%	u	x	x	x	x
Cc1cc(C)n(-c2cccc(Cl)c2)c(=O)c1C#N	13%	4%	0%	16%	-5%	-6%	-7%	-3.8%
O=C(O)C1(Nc2ccc(Br)cc2)CCCC1	-13%	4%	-11%	-11%	x	x	x	x
COc1ccc(N(C(=O)c2ccn[nH]2)C(C(=O)NC2CCCC2)c2ccc(F)cc2)cc1 (stereo not given)	-30%[46.1 µM]	-17%	1%	-14%[46.1 µM]	5%	-4%	x	x
CN(C(=O)CCCN1CCCC1=O)C1CCCN(Cc2ccccc2F)C1 (stereo not given)	-4%	9%	-20%	-2%	4%	3%	x	x
CC(C)CCN1CCN(Cc2ccon2)CC1CCO (stereo not given)	3%[46.1 µM]	-5%	-4%	4%[46.1 µM]	2%	0%	x	x
C=CCNC(=O)c1ccc2c(c1)N(CC)C(=O)c1ccccc1S2	-6%[46.1 µM]	12%	-24%	-28%[46.1 µM]	-2%	-1%	x	x
O=C(NCc1ccccc1)c1ccc(Br)o1	11%	8%	-20%	-7%	-6%	-6%	-15%	2.3%
O=C(COC(=O)COc1ccccc1F)Nc1cccc(S(=O)(=O)N2CCCCC2)c1	u	-4%	-17%	-2%	x	0%	x	x
CC(=O)c1c(N=CN(C)C)nc(C)nc1-c1ccccc1	-10%	17%	8%	0%	5%	4%	1%	0.1%
Cc1ccc2nc(NC(=S)NC(=O)c3ccc(OC(C)C)cc3)sc2c1	x	-5%	1%	-7%	-199%	-41%	u	-1.8%
O=C(CCn1ccnc1)Nc1cc(Cl)ccc1O	x	22%	2%	u	8%	2%	x	x
COc1ccc(S(=O)(=O)N(CC(=O)N/N=C/c2cccs2)c2cc(C)cc(C)c2)cc1OC	u	-4%	5%	u	9%	5%	13%	-8.3%
COc1ccc(/C=N/NC(=S)Nc2ccccc2)cc1COc1ccc(Br)cc1	x	7%	0%	x	-25%	-1%	x	x
COc1cc(COc2ccc3c(C)c(Cc4ccccc4)c(=O)oc3c2C)cc(OC)c1OC	-1%	-7%	u	u	-1%	1%	11%	1.0%
Cc1ccc2cc3cc(C(=O)N4CCCCCC4)oc3nc2c1	u	-12%	11%	u	-71%	-17%	-13%	-2.6%

Other structures follow:
canonical_smiles	Lassa entry inh	RE007 growth inh	2A StopGo	Marburg entry inh	NS1 inh	SARS PLP yeast	Cruzain inh noDet	Cruzain Triton
CN1C(=O)/C(=C/C=C2/CCCN2C)N(C)C1=S	12%[46.1 µM]	-3%	13%	u	2%	-1%	x	x
CCOc1ccccc1NC(=O)Cn1c(=O)sc2ccccc21	u	4%	-15%	24%[46.1 µM]	1%	0%	x	x
O=C(Nc1cccc([N+](=O)[O-])c1)C1C2/C=C\CCCCC21 (stereo not given)	x	-1%	1%	x	-4%	-1%	x	x
CCCCNC(=O)O[C@@H]1C[C@H]2CCC(=O)N3CC[C@@H](C1)[C@@H]23	x	-1%	-15%	x	-2%	-3%	x	x
Cc1ccc(-n2c(C)nn(-c3ncc(C(F)(F)F)cc3Cl)c2=O)cc1	-2%	15%	-2%	-27%[46.1 µM]	-6%	5%	-2%	-0.4%
CCN(CC)S(=O)(=O)c1ccc(Cc2ncc(C(F)(F)F)cc2Cl)s1	u	8%	u	u	9%	15%	-9%	-8.2%
CCc1nccn1S(=O)(=O)c1cc(C)c(OC)cc1C	13%	-7%	4%	4%	14%	-2%	-6%	0.8%
CN1C(=O)Cc2cc(S(=O)(=O)N3CCN(c4cccc(Cl)c4)CC3)ccc21	x	-11%	-11%	x	9%	0%	x	x
CCCOc1ccc(C(=O)OCC(=O)c2c(N)n(C)c(=O)n(C)c2=O)cc1OCC	11%	4%	1%	14%[46.1 µM]	-2%	-9%	x	x
COc1ccc(Cl)cc1NC(=O)CSc1nnc(Cc2ccc(C)cc2)c(=O)[nH]1	-7%[46.1 µM]	-14%	-8%	-6%	x	-2%	x	x
Cc1ccc(C)c(N2CCN(C(=O)c3cc(S(=O)(=O)N4CCOCC4)ccc3F)CC2)c1	u	-5%	-20%	u	13%	0%	u	-4.5%
Nc1nc2n(n1)C(c1ccc(F)cc1)CC(c1ccc(F)cc1)N2 (stereo not given)	3%	-13%	-25%	-2%	14%	1%	1%	0.4%
Cc1nc2cc(NC(=O)N3CCCCC3)ccc2n1C	17%	-13%	27%	19%	8%	17%	-2%	1.4%
Cc1cc(C)c(NC(=O)NC(=O)c2ccc(F)cc2)c(C)n1	-4%	-5%	2%	u	9%	2%	1%	3.4%

Compound activity from PubChem.
